LANA-nucl inh: LANA-nucleosome interaction inhibition. FITC-LANA1-23 / chicken nucleosome fluorescence polarization; stronger effect = lower value. z-score (concentration not given with the values). 51,000 compounds, 0.3% hits. AID 720717;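 active = both repeat wells score below -2 in polarization z-score versus plate sample wells, excluding overly bright wells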;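 also: 100 nL library stock added to about 30 µL; numbers are from one replicate; some results filed as inactive read as strong as hits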
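test system = FITC-LANA peptide and chicken nucleosomes | amount = 240 nM purified chicken nucleosomes (480 nM peptide binding sites), final | reagent = 50 nM FITC-LANA1-23 probe | medium = TEN-BT buffer, pH 7.5 | doses = single compound addition by pin transfer, 100 nL per well | timing = 10–45 min, room temperature | detection = fluorescence polarization | repeats = duplicate plates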
BasE inh: inhibitors of Acinetobacter baumannii siderophore enzyme BasE; purified BasE, fluorescence polarization binding displacement; inhibition, % (test concentration not listed); 84,000 compounds, 0.1% hits;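 active = both replicates above 25% with normal brightness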;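 also: 0% = negative plate control signal and 100% = positive plate control signal; stock transfer was 100 nL into about 30 µL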
Starred values were filed as active, the others as inactive; . = not tested or not shown; & = joins results of further samples. A portion of the library (hit frequency here may not be typical).

Every second line gives: LANA-nucl inh	BasE inh
> O=C(Nc1ccc(Cl)cc1)N1CCOC1c1cccs1 (stereo not given)
 : -0.12	1.3
> Cn1c(SCc2ccccc2)nnc1C1CCCNC1 (stereo not given)
 : 0.56	1.2
> COc1ccc(C2SCCN2S(=O)(=O)c2ccc(NC(C)=O)cc2)cc1OC (stereo not given)
 : -0.35	-4.1
> C1=CC2/C(=N\Nc3ccccn3)CC2C1 (stereo not given)
 : .	2.0
> COC(Cn1c(-c2cccc(S(=O)(=O)N(C)C)c2)nn(CN2CC(C)CC(C)C2)c1=S)OC (stereo not given)
 : .	1.3
> O=c1sc(N2CCN(c3ccccc3F)CC2)nc2ccsc12
 : -0.85	0.3
> N#Cc1cc2c(nc1SCCS(=O)(=O)Cc1ccc(Cl)cc1)CCCC2
 : .	2.6
> Cc1cc(/C=C2\NC(=O)NC2=O)c(C)n1-c1cccnc1
 : 0.3	1.6
> O=C(NC1CCS(=O)(=O)C1)C1CCN(c2nccc(C(F)(F)F)n2)CC1 (stereo not given)
 : -0.061	4.7
> CCc1ccc(-n2c(SCc3nnc(-c4cccs4)o3)nc3ccccc3c2=O)cc1
 : .	0.2
> COc1ccc(/C=N/n2c(C)cc(C)cc2=O)cc1
 : .	1.9
> CCOC(=O)c1c(C)c(C(=O)N2CCCCCC2)c(C)n1C
 : -0.44	-2.9
> C#CCOC(=O)Nc1nc(C)oc1C(F)(F)F
 : -0.022	4.8
> OC(CNCc1ccc(-c2cccs2)cc1)C(F)(F)F (stereo not given)
 : -0.94	.
> O=C(Cc1ccccc1)Nc1ccccc1F
 : -0.92	0.2
> Cc1ccc(C2C(C(=O)/C=C/c3ccccc3)=C(O)C(=O)N2CCO)cc1 (stereo not given)
 : -0.47	0.7
> CC(C)OC(=O)CSc1nnc(-c2ccccc2)o1
 : .	0.3
> CN(C(=O)Nc1ccc(C(C)(C)C)cc1)C1CCCCC1
 : 1.2	-0.5
> O=C(CSc1nnc(-c2cccs2)o1)NCC1CCCCC1
 : .	-2.0
> CC(C)NC(=O)CC(c1cccs1)N1Cc2ccccc2C1=O (stereo not given)
 : -0.074	-0.3

(more compounds)
Every second line gives: LANA-nucl inh	BasE inh
> CCn1c(C)c(C2=CCN(S(=O)(=O)c3ccc(C)cc3)CC2)c2ccccc21
 : 1.5	-6.0
> O=c1[nH]c2c(n1-c1ccccc1)C=Nc1cc3ccccc3cc1N2
 : .	2.0
> O=C(CSc1nc2nn(-c3ccccc3)c(=O)c-2c2n1CCCCC2)Nc1ccc2c(c1)OCO2
 : .	-3.5
> FC(F)(F)C12CC(c3ccccc3)=NCCN1CCN2 (stereo not given)
 : -0.78	0.4
> CC1CCN(c2nc3ccccn3c(=O)c2/C=N/NC(=O)c2ccccc2)CC1
 : -0.16	-0.4
> O=C(c1ccc(C(=O)N2CCCCCC2)cc1)N1CCCCCC1
 : -0.28	.
> CC(C)[C@@H](C(=O)O)N1Cc2ccccc2C1=O
 : 0.66	0.0
> CC(C)NC(=O)c1ccc(OC2CSC2)cc1
 : -0.25	-0.8
> CSc1nn(Cc2ccccc2)c(N)c1S(=O)(=O)c1ccccc1
 : 0.66	0.4
> CC(C)COc1ccc(C(=O)OCCN2CCCCC2)cc1
 : .	-2.9
> Cc1ccc(C23CCC(=O)N2C(C(=O)NC2CC2)CS3)cc1 (stereo not given)
 : .	0.7
> COc1cc(C(=O)CSc2nccc(C)n2)cc(OC)c1OC
 : .	5.7
> CS(=O)(=O)Nc1ccccc1C(N)=O
 : .	0.7
> Cc1nc2ccccc2c(=O)n1-c1ccc(C(=O)NC(C)c2ccccn2)cc1 (stereo not given)
 : .	-0.7
> O=C(NC1CCCCC1)c1ccccc1F
 : 1.2	0.7
> COC(=O)C1=CN(Cc2ccc3c(c2)OCO3)C=C(C(=O)OC)C1c1ccc2c(c1)OCO2
 : -0.5	2.8
> Cc1cccc(NC(=O)CNC(=O)Cc2ccc3c(c2)OCCO3)c1C
 : .	1.5
> CCn1c(C)nnc1SCc1cccc(Cl)c1
 : -1.4	1.5
> O=C1Nc2ccccc2N(O)N1c1ccc(O)cc1
 : -1.1	-0.2
> CC(C)c1ccc(C(C)NC(=O)C2=COCCO2)cc1 (stereo not given)
 : .	-0.9

The list goes on:
Every second line gives: LANA-nucl inh	BasE inh
> COc1ccc2c(CC(=O)OCC(=O)Nc3cc(C(F)(F)F)ccc3N3CCOCC3)coc2c1
 : .	0.6
> CN(C)c1ccc(NC(=O)c2ccccc2)cc1
 : -1.4	.
> CC1(C)Cc2nnc3c4c(nnc(c24)C1)CC(C)(C)C3
 : 0.046	0.4
> CC(=S)Nc1ccc2c(c1)OCO2
 : .	3.0
> CCC(CC)NC(=O)COc1ccc(-c2nnco2)cc1
 : .	2.2
> Cc1c(C(=O)NC(C)C)oc2ccc3c(c12)C(O)CC(C)(C)O3 (stereo not given)
 : -0.65	-2.5
> Cc1cccc(/N=C/c2c(O)n(Cc3ccc4c(c3)OCO4)c(=O)c3ccccc23)n1
 : .	-0.1
> O=C(COc1ccccc1)NC(C(=O)O)C12CC3CC(CC(C3)C1)C2 (stereo not given)
 : 0.12	0.7
> CCSc1nnc(CNc2ccc(F)cc2)n1CC1CCCO1 (stereo not given)
 : 0.21	-0.7
> CCCc1nc2ccc(NC(C)=O)cc2[nH]1
 : -0.14	2.6
> COc1ccc(C(=O)Nc2cccc3nsnc23)cc1OC
 : -0.068	-0.5
> N#CC(C(=O)OC1CCCCC1)c1nc2ccccc2nc1N1CCCCC1 (stereo not given)
 : -0.59	-5.5
> C#C[C@]1(O)CCC2C3CCC4=Cc5oncc5C[C@]4(C)C3CC[C@@]21C (stereo not given in full)
 : 0.075&-0.59	2.7
> CN(C(=O)COc1ccccc1)c1nc(-c2ccccc2)cs1
 : 2.6	0.8
> FC(F)(F)c1cccc(-c2ccc(-c3csnn3)o2)c1
 : .	1.4
> COc1ccc2c(c1)C(C)CC(C)(C)N2C(=O)CSc1ncn[nH]1 (stereo not given)
 : 0.16	1.9
> O=C(CN1C(=O)CSC1=O)CN1C(=O)CSC1=O
 : -0.19	-2.6
> Cc1cc(-c2ccc(S(=O)(=O)NCCN3CCCC3)s2)n[nH]1
 : 0.45	-19
> CCCNC(=O)c1cc(CCC)on1
 : -0.074	-0.9
> Cc1ccc(C)c(S(=O)(=O)/N=C(\c2ccccc2)N(C)C)c1
 : .	1.7

Whole records, looked up by structure. Order of values: LANA-nucl inh, BasE inh
CN(C)c1ccc(NC(=O)c2ccccc2)cc1 is listed with -1.4, .
C#C[C@]1(O)CCC2C3CCC4=Cc5oncc5C[C@]4(C)C3CC[C@@]21C (stereo not given in full) is listed with 0.075&-0.59, 2.7
COc1ccc2c(c1)C(C)CC(C)(C)N2C(=O)CSc1ncn[nH]1 (stereo not given) is listed with 0.16, 1.9

New compounds follow.
Every second line gives: LANA-nucl inh	BasE inh
> CCN(CC)C(=O)Oc1cc(C)nc(-c2ccc(F)c(Cl)c2)n1
 : 0.26	.
> c1coc(C2Nc3cccc4cccc(c34)N2)c1
 : 2.8	-3.5
> N#C/C(=N\Nc1cccc(Cl)c1)C(=O)c1ccco1
 : 0.71	-0.9
> CN(C(=O)c1ccccc1)c1ccc(C(O)(C(F)(F)F)C(F)(F)F)cc1
 : .	2.2
> CS(=O)(=O)Nc1ccc(C(=O)N2CC(=O)Nc3ccccc32)cc1
 : -0.88	3.9
> CCN1C(=O)C2(c3ccccc31)c1c(oc3ccccc3c1=O)C(=O)N2CC1CCCO1 (stereo not given)
 : 0.63	-0.6
> CN(C)C=C1C(=O)CC(c2ccc(Cl)cc2)CC1=O (stereo not given)
 : 1.4	7.2
> N#Cc1cccnc1NNC(=O)CCC(=O)O
 : -1	-1.9
> Cc1ccc(S(=O)(=O)c2nc(S(C)(=O)=O)sc2NC2CCS(=O)(=O)C2)cc1 (stereo not given)
 : .	3.2
> CN1CCN(S(=O)(=O)c2ccc(Oc3ccc(Oc4ccccc4)cc3)nc2)CC1
 : .	-1.6
> Cc1ccc(/C=C2\C(=O)Nc3ccc(Br)cc32)o1
 : -0.33	1.8
> Cc1noc2ncnc(N3CCCC(C(=O)Nc4ccc5c(c4)OCO5)C3)c12 (stereo not given)
 : .	-2.2
> Cn1c(=O)c(-c2nc(C(C)(C)C)cs2)cn(-c2ccccc2)c1=O
 : -1.7	2.0
> COC(=O)C1SC(C)SCC1=O (stereo not given)
 : -0.14	2.9
> Nc1nc2n(n1)C(c1cccs1)CC(c1ccc(Cl)cc1Cl)N2 (stereo not given)
 : -0.31	-2.4
> Cc1cc(C)cc(NC(=O)/C=C\C(=O)O)c1
 : 0.37	2.1
> CCSc1ncc2c(c1C#N)CCC2
 : 0.29	1.4
> S=C(NCCN1CCOCC1)N1CCC(Cc2ccccc2)CC1
 : .	-1.2
> CC(C)(C)C(=O)Nc1ccc(-c2cc3cc(Cl)ccc3o2)cc1
 : .	1.1
> CC(C)CNc1cc(C(C)C)c(C#N)c2nc3ccccc3n12
 : -0.77	1.4

Reprinted from the part before: three entries, then new ones.
Every second line gives: LANA-nucl inh	BasE inh
> S=C(NCCN1CCOCC1)N1CCC(Cc2ccccc2)CC1
 : .	-1.2
> CC(C)(C)C(=O)Nc1ccc(-c2cc3cc(Cl)ccc3o2)cc1
 : .	1.1
> CC(C)CNc1cc(C(C)C)c(C#N)c2nc3ccccc3n12
 : -0.77	1.4
> CN(C)S(=O)(=O)c1ccc(S(=O)(=O)N2CCN(C=O)CC2)cc1
 : 2.1	-1.9
> O=C(N/N=C/c1cccnc1)c1ccc(CN2CCOCC2)cc1
 : -0.68	1.7
> CCOC(=O)c1ccc(-n2c(C)cc(/C=N/O)c2C)cc1
 : .	2.3
> c1ccc(-c2nnc(Cc3cn4ccsc4n3)o2)cc1
 : .	0.2
> COc1cc(/C=C(\C#N)C(=O)NCc2cccnc2)ccc1O
 : 0.17	1.8
> CCc1ccc(Nc2nnc(SCC(=O)Nc3cccc4nsnc34)s2)cc1
 : .	0.2
> CCOC(=O)c1ccc(NC(NC(=O)OC)(c2ccccc2)C(F)(F)F)o1 (stereo not given)
 : .	-1.4
> NC(=S)CCn1ncc2c(N)ncnc21
 : .	1.2
> Cc1ccc(C(=O)NCCn2nc(C)cc2C)cc1
 : -0.62	2.4
> CCCCNc1nnc(SCc2nc3ccsc3c(=O)[nH]2)s1
 : .	-1.4
> CCC(NS(=O)(=O)c1ccc(C)cc1)C(=O)NCc1ccccc1 (stereo not given)
 : .	-1.3
> CN1CCN(/N=C/c2ccc(N(C)c3ccccc3)cc2)CC1
 : .	-2.6
> Cc1ccc2nc(CSCc3nc4ccc(Cl)cc4n3CCO)cc(=O)n2c1
 : .	-0.8
> CC(=O)Oc1ccc2c(c1)oc(=O)c1c3cc(OC(C)=O)c(OC(C)=O)cc3oc21
 : 0.51	-0.2
> Clc1ccc(-c2nc3sccn3c2/C=N/OCc2ccc(Cl)c(Cl)c2)cc1
 : -0.27	2.9
> COc1ccc(-c2nnc(SC/C(O)=C(\C#N)c3nc4ccccc4s3)n2CC2CCCO2)cc1 (stereo not given)
 : .	1.9
> Cc1ccc(SC(C)C(=O)NC2CCCCC2)cc1 (stereo not given)
 : .	2.0
> Nc1ccc(Sc2ccc(N)cc2C(=O)O)c(C(=O)O)c1
 : -0.21	1.6
> N#C/C(=C\c1cc(Br)cs1)c1cccs1
 : .	0.9
> C=CCN(Cc1nc(-c2ccc(C)cc2)no1)C(=O)C(C)(C)C
 : 0.046	-0.1

(further entries)
Every second line gives: LANA-nucl inh	BasE inh
> Cc1csc(SCC(=O)Nc2cc(C(C)(C)C)nn2-c2ccccc2)n1
 : .	0.9
> COc1cccc(NC(=O)c2ccc(C)cc2)c1
 : -0.11	-0.1
> CS(=O)(=O)CCSc1ncccc1C(=O)NCc1cccs1
 : .	0.8
> COC(=O)Cn1c(=NC(=O)C(C)(C)C)sc2cc(F)ccc21
 : 2.2	-2.0
> COCC(C)n1c(C)cc(C(=O)COC(=O)[C@@H]2CCCN2C(=O)c2cccs2)c1C (stereo not given in full)
 : .	1.6
> CCOC(=O)N1CCN(C(=O)c2cnc3n(c2=O)CCS3)CC1
 : -1.2	0.0
> CCNC(=O)c1ccc(C2SCC(=O)N2Cc2ccco2)cc1 (stereo not given)
 : -0.71	-0.4
> COc1cc(-c2nnc(COC(=O)c3cccnc3SC)o2)cc(OC)c1OC
 : .	-1.5
> N#C/C(=C(/O)CCN1C(=O)c2ccccc2C1=O)c1nc2ccccc2[nH]1
 : .	-0.1
> COC(=O)c1c(C)nc2nonc2c1N
 : -0.35	5.4
> Cc1ccc(NCc2ccc(Cl)nc2)c(NCc2ccc(Cl)nc2)c1
 : .	0.7
> COC(=O)c1ccccc1N/C=C(\C#N)c1nc2ccccc2[nH]1
 : 0.045	1.7
> CCNC(=O)c1c(-c2ccccc2)noc1C
 : .	0.8
> CSc1ccc(-c2nc(CSCC(=O)NC3CC3)c(C)o2)cc1
 : 0.22	-1.9
> N#Cc1ccccc1CN1C(=O)c2cccc3cccc1c23
 : .	0.9
> O=C(Nc1cccc2nsnc12)c1ccc(-c2cccc(Cl)c2)o1
 : 1.8	-6.6
> CCOC(=O)c1oc2ccccc2c1CO
 : .	-2.1
> COC(=O)c1ccc(NC(=O)C2C3CCC(C3)C2C(=O)O)cc1 (stereo not given)
 : .	1.8
> c1ccc2c(c1)Nc1nc3ccccc3nc1N2
 : 0.13	-1.1
> COc1ccccc1NC(=S)N(C)CCO
 : .	2.8

Carrying on.
Every second line gives: LANA-nucl inh	BasE inh
> CCC(C(=O)NC1CCCC1)N(C(=O)Cn1nnc(-c2cccs2)n1)c1cnc2ccccc2c1 (stereo not given)
 : 0.42	-0.5
> O=C(CO/N=C/c1cccs1)N1CCN(c2ccccc2)CC1
 : .	2.0
> CCCC1=NN(c2nc3ccccc3s2)C(=O)/C1=C/N(C)C
 : .	3.0
> O=C(CC1CCCC1)Nc1ccc(S(=O)(=O)C(F)F)cc1
 : .	-0.4

High-throughput results: PubChem BioAssay, ICCB-Longwood Screening Facility, Harvard Medical School
